Screens from PubChem BioAssay.
FGF22 binding: binders of recombinant human FGF22 by thermal shift. hit rate 1.5% among 340,000. calls only at 9.99 µM. SYPRO orange fluorescence; percent of sucrose octasulfate shift, DMSO zero. AID 651658;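 active means melting point raised past a set limit in the mean and every replicate; three in four hits are not shown here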
Target sequence (Q9HCT0 whole entry, looked up): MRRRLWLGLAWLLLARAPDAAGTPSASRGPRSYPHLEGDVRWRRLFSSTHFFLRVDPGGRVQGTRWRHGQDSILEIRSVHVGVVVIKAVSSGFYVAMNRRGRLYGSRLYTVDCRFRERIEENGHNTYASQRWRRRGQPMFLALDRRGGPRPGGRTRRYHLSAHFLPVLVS
Calls only; i = inactive. The list is partial, so the mix of outcomes need not match the whole.

> O=C(c1ccccc1F)N1C[C@@H]2[C@H](c3ccccc31)[C@@H](CO)N2C(=O)c1ccncc1
  FGF22 binding: i

> C[C@H]1CN([C@@H](C)CO)C(=O)c2cccc(NC(=O)c3nc4ccccc4s3)c2O[C@H]1CN(C)S(=O)(=O)c1cccs1
  FGF22 binding: i

> C[C@H](CO)N1C[C@H](C)[C@H](CN(C)C)Oc2ccc(NC(=O)CCCCCC(=O)Nc3ccccc3N)cc2C1=O
  FGF22 binding: i

> CCOC(=O)N(C)C[C@@H]1OCc2ccccc2-c2ccccc2C(=O)N([C@@H](C)CO)C[C@@H]1C
  FGF22 binding: i

> CCC(=O)Nc1ccc2c(c1)OC[C@@H](C)N(Cc1cccnc1)C[C@@H](C)[C@H](OC)CN(C)C2=O
  FGF22 binding: i

> COc1ccc(CN(C)C[C@H]2Oc3ccc(NS(=O)(=O)c4ccc(Cl)cc4)cc3C(=O)N([C@@H](C)CO)C[C@H]2C)cc1
  FGF22 binding: i

> C[C@H]1CN([C@@H](C)CO)C(=O)c2cc(Br)cnc2O[C@H]1CN(C)Cc1ccccc1
  FGF22 binding: i

> COc1ccc(-c2ccccc2[C@H]2[C@@H](CO)N(C(=O)C3CCOCC3)[C@H]2C#N)cc1
  FGF22 binding: i

> C[C@@H]1CN([C@@H](C)CO)S(=O)(=O)c2ccc(C3=CCCCC3)cc2O[C@@H]1CN(C)C(=O)Cc1ccncc1
  FGF22 binding: i

> CN(C)Cc1cn(CC[C@@H]2CC[C@@H](NS(=O)(=O)c3ccccc3)[C@H](CO)O2)nn1
  FGF22 binding: i

> Brc1ccc(-c2ccc3c(n2)CCCN3Cc2ccccn2)cc1
  FGF22 binding: i

> C[C@H]1CN([C@@H](C)CO)C(=O)c2cccc(NC(=O)C3CCCCC3)c2O[C@@H]1CN(C)S(=O)(=O)c1ccccc1
  FGF22 binding: i

> COCC#Cc1ccc([C@@H]2[C@H]3CN(C(=O)Nc4cc(F)ccc4F)CCCCN3[C@H]2CO)cc1
  FGF22 binding: i

> O=C(C[C@@H]1C=C[C@H](NC(=O)C2CCC2)[C@@H](CO)O1)NC1CCC1
  FGF22 binding: i

> Cc1ccc(S(=O)(=O)N(C)C[C@@H]2OCCCC[C@@H](C)Oc3ccc(NC(=O)C4CCCCC4)cc3C(=O)N([C@@H](C)CO)C[C@@H]2C)cc1
  FGF22 binding: i

> CCNC(=O)C[C@@H]1CC[C@H]2[C@H](COc3ccc(NC(=O)c4ccc(C(F)(F)F)cc4)cc3C(=O)N2C)O1
  FGF22 binding: i

> CO[C@@H]1CN(C)C(=O)c2cc(NC(=O)c3ccccc3)ccc2OC[C@H](C)N(C(C)=O)C[C@H]1C
  FGF22 binding: i

> CN(C)C(=O)C[C@H]1CC[C@@H]2[C@H](COC[C@H](O)CN2C(=O)C2CCCC2)O1
  FGF22 binding: i

> CCCNC(=O)C[C@@H]1CC[C@H]2[C@H](COc3ccc(NC(=O)NCC)cc3C(=O)N2C)O1
  FGF22 binding: i

> C[C@@H]1CN([C@@H](C)CO)C(=O)c2cc(-c3ccccc3)cnc2O[C@@H]1CN(C)C(=O)Nc1ccc2c(c1)OCO2
  FGF22 binding: i

Some of the entries above in another layout:
compound	FGF22 binding
COCC#Cc1ccc([C@@H]2[C@H]3CN(C(=O)Nc4cc(F)ccc4F)CCCCN3[C@H]2CO)cc1	i
O=C(C[C@@H]1C=C[C@H](NC(=O)C2CCC2)[C@@H](CO)O1)NC1CCC1	i
CCCNC(=O)C[C@@H]1CC[C@H]2[C@H](COc3ccc(NC(=O)NCC)cc3C(=O)N2C)O1	i
CN(C)C(=O)C[C@H]1CC[C@@H]2[C@H](COC[C@H](O)CN2C(=O)C2CCCC2)O1	i

(further entries)
> CC(=O)N1[C@@H](CO)[C@H](c2ccccc2)[C@@H]1CN(C)S(=O)(=O)c1ccccc1
  FGF22 binding: i

> O=C(C[C@@H]1C[C@@H]2c3cc(NC(=O)Cc4ccncc4)ccc3O[C@@H]2[C@@H](CO)O1)NCCN1CCCCC1
  FGF22 binding: i

> CC(C)NC(=O)Nc1ccc2c(c1)CC(=O)N([C@H](C)CO)C[C@@H](C)[C@@H](CN(C)Cc1ccc3c(c1)OCO3)O2
  FGF22 binding: i

> COCCCNC(=O)[C@@]1(Cc2ccccc2)COC(c2ccc(OCCCO)cc2)=N1
  FGF22 binding: i

> CC(C)NC(=O)Nc1ccc2c(c1)CC(=O)N([C@@H](C)CO)C[C@H](C)[C@H](CN(C)C(=O)Nc1cccc3ccccc13)O2
  FGF22 binding: i

> C[C@@H]1CN([C@@H](C)CO)S(=O)(=O)c2ccc(C#CC3CC3)cc2O[C@H]1CN(C)Cc1ccccc1
  FGF22 binding: i

> Cc1ccc(S(=O)(=O)Nc2ccc3c(c2)C(=O)N([C@H](C)CO)C[C@@H](C)[C@@H](CN(C)C(=O)c2ccncc2)OCCCC[C@H](C)O3)cc1
  FGF22 binding: i

> CO[C@H]1CN(C)C(=O)c2ccc(NC(=O)c3cnccn3)cc2OC[C@H](C)N(C(C)=O)C[C@@H]1C
  FGF22 binding: i

> CC(C)COC(=O)N(C)C[C@@H]1OCc2cn(nn2)CCCC(=O)N([C@@H](C)CO)C[C@@H]1C
  FGF22 binding: i

> CN1CCN(C(=O)C[C@H]2CC[C@@H]3[C@H](COc4ccc(NC(=O)C5CCCC5)cc4C(=O)N3C)O2)CC1
  FGF22 binding: i

> Cc1ccccc1S(=O)(=O)N1C[C@H](O)COC[C@@H]2O[C@@H](CC(=O)N3CCOCC3)CC[C@H]21
  FGF22 binding: i

> CC(C)NC(=O)N(C)C[C@@H]1Oc2cc(-c3ccccc3)ccc2S(=O)(=O)N([C@H](C)CO)C[C@@H]1C
  FGF22 binding: i

> CO[C@@H]1CN(C)C(=O)c2ccc(NS(C)(=O)=O)cc2OC[C@@H](C)N(C(=O)NC(C)C)C[C@@H]1C
  FGF22 binding: i

> COC(=O)[C@H]1[C@H](CO)[C@H]2Cn3c(ccc(-c4ccccc4F)c3=O)[C@H]2N1Cc1cccnc1
  FGF22 binding: i

> CC(C)C#Cc1ccc2c(c1)O[C@@H](CN(C)C(=O)C1CC1)[C@H](C)CN([C@H](C)CO)S2(=O)=O
  FGF22 binding: i

> C[C@H](CO)N1C[C@H](C)[C@H](CN(C)S(=O)(=O)c2ccc(Cl)cc2)Oc2c(NC(=O)NC3CCCCC3)cccc2C1=O
  FGF22 binding: i

> C[C@@H]1CN([C@H](C)CO)C(=O)c2cc(-c3cncnc3)cnc2O[C@@H]1CN(C)C(=O)Nc1ccc2c(c1)OCO2
  FGF22 binding: i

> CC1CCCN(c2cccc3c2S(=O)(=O)N(Cc2cccc(F)c2)[C@@H](C)[C@H](c2ccccc2)O3)C1 (stereo partly specified)
  FGF22 binding: i

> COc1ccc(NC(=O)N(C)C[C@H]2OCCCC[C@H](C)Oc3ccc(NC(=O)Nc4cccc5ccccc45)cc3C(=O)N([C@H](C)CO)C[C@@H]2C)cc1
  FGF22 binding: i

> C[C@H](CO)N1C[C@H](C)[C@@H](CN(C)Cc2ccccc2)Oc2ccc(N(C)C)cc2C1=O
  FGF22 binding: i

> C[C@@H]1CN([C@H](C)CO)C(=O)c2cc(NC(=O)Nc3ccc(F)cc3)ccc2O[C@H]1CN(C)C(=O)Nc1ccc(F)cc1
  FGF22 binding: i

> C[C@H](CO)N1C[C@H](C)[C@H](CN(C)S(=O)(=O)c2ccc(Cl)cc2)OCCCC[C@H](C)Oc2ccc(N(C)C)cc2C1=O
  FGF22 binding: i

> C[C@H]1CN([C@@H](C)CO)S(=O)(=O)c2ccc(-c3cncnc3)cc2O[C@H]1CN(C)C
  FGF22 binding: i

> COCC(=O)N1C[C@H](C)[C@@H](OC)CN(C)C(=O)c2cc(NC(=O)C3CCC3)ccc2OC[C@@H]1C
  FGF22 binding: i

> CO[C@H]1CN(C)C(=O)c2ccc(NC(C)=O)cc2OC[C@H](C)N(C(=O)c2ccncc2)C[C@H]1C
  FGF22 binding: i

> C[C@H](CO)N1C[C@H](C)[C@H](CN(C)Cc2ccc(Cl)c(Cl)c2)OCCCC[C@H](C)Oc2ccc(NC(=O)C3CCCCC3)cc2C1=O
  FGF22 binding: i

> C[C@H]1CCCCO[C@@H](CN(C)S(=O)(=O)c2ccc(F)cc2)[C@@H](C)CN([C@@H](C)CO)C(=O)c2cc(NS(=O)(=O)c3ccc(F)cc3)ccc2O1
  FGF22 binding: i

> COc1ccc(CN(C)C[C@@H]2OCCCC[C@H](C)Oc3ccc(NC(=O)Nc4ccccc4)cc3C(=O)N([C@@H](C)CO)C[C@@H]2C)cc1
  FGF22 binding: i

> O=C(C[C@@H]1C[C@@H]2c3cc(NC(=O)c4cccnc4)ccc3O[C@@H]2[C@@H](CO)O1)NCc1cccnc1
  FGF22 binding: i

> CO[C@@H]1CN(C)C(=O)c2cc(NC(=O)C3CC3)ccc2OC[C@@H](C)N(C(=O)c2ccccc2)C[C@@H]1C
  FGF22 binding: i

> CNC[C@H]1Oc2ccc(NS(=O)(=O)c3ccc(F)cc3)cc2C(=O)N([C@H](C)CO)C[C@@H]1C
  FGF22 binding: i

> COc1ccccc1NC(=O)N1CC[C@@H]2[C@H]1c1cc(C#Cc3ccc(F)cc3)ccc1N(C)[C@@H]2CO
  FGF22 binding: i

> C[C@H]1CCCCO[C@@H](CN(C)Cc2ccc(Cl)c(Cl)c2)[C@@H](C)CN([C@@H](C)CO)C(=O)c2cc(NC(=O)Nc3ccc(C(F)(F)F)cc3)ccc2O1
  FGF22 binding: i

> Cc1noc(C)c1NC(=O)Nc1ccc2c(c1)CC(=O)N([C@H](C)CO)C[C@H](C)[C@@H](CN(C)C(=O)Nc1ccc(F)cc1)O2
  FGF22 binding: i

> Cc1cccc(S(=O)(=O)N(C)C[C@@H]2OCc3ccccc3-c3ccccc3C(=O)N([C@@H](C)CO)C[C@H]2C)c1
  FGF22 binding: i

> Cc1noc(C)c1NC(=O)N(C)C[C@H]1OCCCC[C@H](C)Oc2ccc(NS(=O)(=O)c3ccc(F)cc3)cc2C(=O)N([C@H](C)CO)C[C@@H]1C
  FGF22 binding: i

> COCC(=O)Nc1ccc2c(c1)[C@H]1C[C@@H](CC(=O)N[C@@H](C)c3ccccc3)O[C@H](CO)[C@H]1O2
  FGF22 binding: i

> COc1ccc2c3c([nH]c2c1)[C@H](CO)N(C(=O)Nc1c(C)noc1C)CC31CCN(CC2CCCC2)CC1
  FGF22 binding: i

> C[C@@H]1CN([C@@H](C)CO)C(=O)c2cccc(NS(=O)(=O)c3ccc(Cl)cc3)c2O[C@H]1CN(C)C(=O)Nc1ccccc1
  FGF22 binding: i

> C[C@H](CO)N1C[C@H](C)[C@@H](CN(C)C(=O)c2cccnc2)Oc2ncc(C#CCN(C)C)cc2C1=O
  FGF22 binding: i

> COc1cccc(S(=O)(=O)N[C@@H]2CC[C@@H](CC(=O)NC3CCC3)O[C@@H]2CO)c1
  FGF22 binding: i

> C[C@H]1CN([C@@H](C)CO)C(=O)c2cc(NS(=O)(=O)c3ccc(Cl)cc3)ccc2O[C@H]1CN(C)CC1CCCCC1
  FGF22 binding: i

> C[C@H](CO)N1C[C@H](C)[C@@H](CN(C)C)Oc2c(NS(=O)(=O)c3ccc(Cl)cc3)cccc2C1=O
  FGF22 binding: i

> CCS(=O)(=O)Nc1ccc2c(c1)C(=O)N(C)C[C@H](OC)[C@H](C)CN(CCC(F)(F)F)[C@H](C)CO2
  FGF22 binding: i

> COc1ccc(NC(=O)Nc2ccc3c(c2)C(=O)N([C@H](C)CO)C[C@H](C)[C@@H](CN(C)S(=O)(=O)c2c(C)noc2C)OCCCC[C@@H](C)O3)cc1
  FGF22 binding: i

> O=C(C[C@H]1C[C@@H]2c3cc(NC(=O)Nc4ccccc4)ccc3O[C@@H]2[C@H](CO)O1)NCCN1CCCCC1
  FGF22 binding: i

> CN(C)C(=O)c1ccc(-c2ccc3c(c2)[C@@H]2[C@@H](CCN2C(=O)c2ccccc2)[C@H](CO)N3)cc1
  FGF22 binding: i

> O=C(C[C@@H]1CC[C@H]2[C@@H](COC[C@@H](O)CN2C(=O)Nc2cc(Cl)cc(Cl)c2)O1)N1CCOCC1
  FGF22 binding: i

> COc1ccc(NC(=O)N(C)C[C@@H]2OCCCC[C@H](C)Oc3ccc(NC(=O)CCC(F)(F)F)cc3C(=O)N([C@@H](C)CO)C[C@@H]2C)cc1
  FGF22 binding: i

> CNC[C@H]1Oc2ncc(-c3ccc(OC)cc3)cc2C(=O)N([C@H](C)CO)C[C@@H]1C
  FGF22 binding: i

> CO[C@@H]1CN(C)C(=O)c2cc(NC(=O)c3ccc(F)cc3)ccc2OC[C@@H](C)N(C)C[C@H]1C
  FGF22 binding: i

> CCC(=O)N1C[C@H](C)[C@H](OC)CN(C)C(=O)c2cc(NC(=O)C3CCOCC3)ccc2OC[C@H]1C
  FGF22 binding: i

> C[C@@H]1CN([C@@H](C)CO)C(=O)c2cc(NC(=O)c3ccncc3)ccc2O[C@H]1CN(C)CC1CCCCC1
  FGF22 binding: i

> COCC(=O)N(C)C[C@H]1Oc2cc(C#Cc3cccnc3)ccc2S(=O)(=O)N([C@H](C)CO)C[C@@H]1C
  FGF22 binding: i

> CC(C)CC#Cc1ccc([C@@H]2[C@@H](CO)N3CCCCN(C(=O)NC4CCCC4)C[C@@H]23)cc1
  FGF22 binding: i

> COc1ccc2c3c([nH]c2c1)[C@@H](CO)N(C(=O)Nc1ccc(F)cc1)CC31CCN(CC2CC2)CC1
  FGF22 binding: i

> C[C@@H]1CN([C@@H](C)CO)C(=O)Cc2cc(NC(=O)Cc3ccccc3)ccc2O[C@@H]1CN(C)Cc1ccc(C(=O)Nc2ccccc2N)cc1
  FGF22 binding: i

> C[C@@H]1CN([C@H](C)CO)S(=O)(=O)c2ccc(-c3ccncc3)cc2O[C@H]1CN(C)Cc1ccccc1
  FGF22 binding: i

> COCCNC[C@@H]1[C@@H](c2ccccc2)[C@@H](CO)N1c1nc(C)c(C)s1
  FGF22 binding: i

> CCNC(=O)C[C@H]1CC[C@@H]2[C@@H](COc3ccc(NC(=O)c4ccc(F)c(F)c4)cc3C(=O)N2C)O1
  FGF22 binding: i

> Cc1noc(C)c1NC(=O)N(C)C[C@H]1Oc2c(NC(=O)c3cnccn3)cccc2C(=O)N([C@H](C)CO)C[C@@H]1C
  FGF22 binding: i

> C[C@H](NC(=O)C[C@H]1C[C@@H]2c3cc(NS(C)(=O)=O)ccc3O[C@@H]2[C@H](CO)O1)c1ccccc1
  FGF22 binding: i

> O=C(NC1CCCC1)[C@H]1[C@H](CO)[C@H]2Cn3c(ccc(C4=CCCCC4)c3=O)[C@@H]1N2CC1CC1
  FGF22 binding: i
